# CtBP-E1A inh: qHTS Assay for Inhibitors of the CtBP/E1A Interaction. AlphaScreen GST-E1A/His-CtBP binding, 1536-well; hits give low values; control for the full effect not named in the record. activity change, % (concentration not given with the values). 340,000 compounds, 0.49% hits; in the data active means activity change below about -65%; inconclusive means about -30% to -65%; inactive means above about -30%; note: % is set by controls: 0 for no effect and ±100 for the full control effect
#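 AlphaScreen with 125 nM GST-E1A and 125 nM His-CtBP (5X stocks) in Tris pH 8.0, 300 mM NaCl, BSA, Tween 20, TCEP. Compounds preincubated 2 h at 37 deg C, then glutathione donor/nickel acceptor beads added for 1 h at 37 deg C in dark.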
# TRPML1 agonist: qHTS for Agonists of the Human Mucolipin Transient Receptor Potential 1 (TRPML1); Mucolipin-1 (Homo sapiens), Q9GZU1; TRPML1-expressing cells, Ca2+ dye fluorescence, FDSS; host cell line not named in the record; reference of the full effect not given here; activation, % (test concentration not listed); 410,000 compounds, 0.12% hits; AID 624414, 2012; in the data active = activation above about 50%; inconclusive = about 30% to 50%; inactive = below about 30%; note: 0% is about no effect; the text of the record puts the active cut at 80%
# Target sequence (Q9GZU1 whole entry, looked up): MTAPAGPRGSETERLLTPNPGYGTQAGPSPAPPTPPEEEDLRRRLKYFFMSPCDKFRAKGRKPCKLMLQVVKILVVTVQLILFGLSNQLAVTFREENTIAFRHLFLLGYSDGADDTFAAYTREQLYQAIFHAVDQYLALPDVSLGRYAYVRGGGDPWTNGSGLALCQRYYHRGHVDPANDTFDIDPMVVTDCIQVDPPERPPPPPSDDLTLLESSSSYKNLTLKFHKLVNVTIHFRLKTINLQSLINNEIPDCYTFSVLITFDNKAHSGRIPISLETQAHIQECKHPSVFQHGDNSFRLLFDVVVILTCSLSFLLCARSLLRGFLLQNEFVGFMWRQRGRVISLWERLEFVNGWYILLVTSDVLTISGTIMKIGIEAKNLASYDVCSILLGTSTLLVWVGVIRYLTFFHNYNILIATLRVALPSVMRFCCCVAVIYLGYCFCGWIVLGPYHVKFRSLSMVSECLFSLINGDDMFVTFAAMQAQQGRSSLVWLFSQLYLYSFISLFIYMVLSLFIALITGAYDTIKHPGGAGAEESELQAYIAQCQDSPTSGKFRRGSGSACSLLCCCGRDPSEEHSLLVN
#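 TRPML1-DL cells, Tet-induced overnight (~16 h, 37 degrees C), loaded 45-90 min at room temperature with Ca8 no-wash calcium dye plus quencher. FDSS fluorescence: 10 s baseline, compound pin-transfer, 110 s agonist read, then EC80 54-4 (4uM final) and 110 s antagonist read.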
# TRPML1 blocker: qHTS for Inhibitors of the Human Mucolipin Transient Receptor Potential 1 (TRPML1). 390,000 compounds, 0.02% hits. Mucolipin-1 (Homo sapiens), Q9GZU1. activity change, negative = inhibition, % (no concentration beside the values). TRPML1-inducible cells, Ca2+ dye fluorescence, FDSS; hits give low values; inhibition of EC80 agonist-evoked calcium signal; in the data active means activity change below about -50%; inconclusive means about -30% to -50%; inactive means above about -30%;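 note: stimulus is agonist 54-4 at its EC80 concentration; % is set by controls: 0 for no effect and ±100 for the full control effect; compound concentration not given in the record; the text of the record puts the active cut at -80%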
#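 Calcium fluorescence in TRPML1-DL cells induced overnight with Tet: a 110 s read after compound pin addition, then a 110 s antagonist read after challenge with 54-4 at 4 uM final (EC80).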
# D2 potentiator: Beta-Arrestin HTS for Positive Allosteric Modulators of the Human D2 Dopamine Receptor: Potentiators. D(2) dopamine receptor (Homo sapiens), P14416. 360,000 compounds, 0.23% hits. potentiation, % (no concentration beside the values). AID 624464, 2012. DiscoveRx D2 beta-arrestin cells, luminescence, 90 min; 100% = 57 uM dopamine signal; active = potentiation of 50% or more; inconclusive = 30% to 50%; inactive = 30% or less;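 note: compound concentration not given in the record; tested on top of an EC20 dose of dopamine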
# Target sequence (P14416 whole entry, looked up): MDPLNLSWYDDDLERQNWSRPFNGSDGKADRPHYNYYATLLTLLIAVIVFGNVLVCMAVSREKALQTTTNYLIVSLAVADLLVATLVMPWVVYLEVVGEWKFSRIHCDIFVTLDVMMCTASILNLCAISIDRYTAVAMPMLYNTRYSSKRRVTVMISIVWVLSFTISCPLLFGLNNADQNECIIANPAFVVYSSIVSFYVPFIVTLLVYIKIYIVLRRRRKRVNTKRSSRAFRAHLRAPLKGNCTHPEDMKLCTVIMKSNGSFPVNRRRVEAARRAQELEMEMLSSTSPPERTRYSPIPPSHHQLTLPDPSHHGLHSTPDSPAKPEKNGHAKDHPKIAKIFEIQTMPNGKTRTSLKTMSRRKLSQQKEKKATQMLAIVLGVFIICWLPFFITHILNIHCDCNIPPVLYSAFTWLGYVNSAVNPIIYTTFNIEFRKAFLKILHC
#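 PathHunter beta-arrestin assay in DiscoveRx D2 cells. Compounds were added with an EC20 of dopamine (50 nM final) for 90 min at 37 deg C. Luminescence was read 1 h after detection reagent, with 57 uM dopamine as the EC100 control.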
# Six1-Eya2 blk: qHTS Assay for Inhibitors of the Six1/Eya2 Interaction | Homeobox protein SIX1 (Homo sapiens) + Protein phosphatase EYA2 (Homo sapiens), … | AlphaScreen GST-Six1/His-Eya2 binding, biochemical; hits give low values; control for the full effect not named in the record | activity change, % (concentration not given with the values) | 360,000 compounds, 0.56% hits; in the data active = activity change below about -65%; inconclusive = about -30% to -65%; inactive = above about -30%; note: % is set by controls: 0 for no effect and ±100 for the full control effect
#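 Homogeneous AlphaScreen proximity assay pairing GST-Six1 with His-tagged Eya2 (added as 5X mix: 250 nM and 500 nM) in 50 mM Tris pH 8.0, 300 mM NaCl, 1 mM TCEP. Glutathione donor and nickel acceptor beads; 1 h, 37 °C, dark.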
# TRPV1 PAM: HTS Assay for Compounds that Act as Potentiators of the Vanilloid Receptor 1; AID 540277, 2011; 320,000 compounds, 0.02% hits; Transient receptor potential cation channel subfamily V member 1 (Homo sapiens), Q8NER1; TRPV1-expressing cells, Fluo-8 calcium influx, capsaicin EC20 potentiation; host cell line not named in the record; control for the full effect not named in the record; potentiation, % at 8.33 µM; active means potentiation above 80%; inconclusive means 30% to 80%; inactive means below 30%; note: 0% is about no effect
#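 TRPV1-expressing cells were cultured overnight at 35.5C and loaded with Fluo-8 calcium dye for 40 to 90 min at room temperature. After a 10 s baseline, compound was added and calcium influx was read kinetically for 3 min (ex 480/em 520 nm).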
# * hit, by the source's call; ? = inconclusive; . = not tested or not shown.
SMILES,CtBP-E1A inh,TRPML1 agonist,TRPML1 blocker,D2 potentiator,Six1-Eya2 blk,TRPV1 PAM
CC(=O)Sc1nc(-c2ccccc2)[nH]c1S(=O)(=O)c1ccc(C)cc1,-2.9,-0.4,7.7,-3.2,-0.5,3.7
COc1ccc(C(=O)Nc2ccc(Cl)c(Cl)c2)c(OC)n1,-2.0,0.7,19.2,-8.9,12.0,-13.2
O=C(c1nc2ccc(Cl)cn2c1CN1CCCC1)N1CCc2ccccc2C1,-1.8,1.2,-11.2,-35.4,-11.6,4.7
COc1ccc(NC(=O)CSc2nnnn2C2CCCC2)cc1S(=O)(=O)N1CCOCC1,7.3,-0.6,-3.9,-7.9,0.4,.
COc1ccc(-n2ccnc2SCC(=O)c2c(N)n(C3CC3)c(=O)[nH]c2=O)cc1,5.2,-0.5,-9.8,10.8,2.1,.
CC1CCN(S(=O)(=O)c2ccc(S(=O)(=O)NCC(=O)C(C)(C)C)cc2)CC1,8.4,-0.1,-4.6,-11.7,0.8,1.7
O=S(=O)(Cc1ccccc1Cl)NCCc1ccc(F)cc1,11.2,1.4,3.1,-1.0,1.5,?
COc1ccc(/C=C/C(=O)Nc2c(C)nn(C)c2C)cc1COc1ccc(Br)cc1,1.1,-1.1,0.5,12.4,-0.3,0.9
O=C(NCCCn1ccnc1)c1cc(S(=O)(=O)N2CCOCC2)ccc1F,5.7,-0.5,-7.1,-2.4,12.0,4.9
O=C1c2ccccc2-c2nnc(-c3ccc(O)cc3)cc21,5.6,0.8,15.2,-24.6,-9.7,15.5
CC1CCC(NC(=O)c2ccc(NC(=O)CC3SC(N4CCCC4)=NC3=O)cc2)CC1 (configuration not stated),-2.3,0.7,25.8,-14.4,-0.5,18.3
Cc1ccccc1NC(=S)NNc1ncc(C(F)(F)F)cc1Cl,-1.5,-0.9,6.0,-24.3,-0.4,3.2
O=C(CSc1nnc(CCc2ccccc2)n1-c1ccc(Cl)cc1)NCc1ccccc1,-2.4,0.7,-2.8,-12.7,-2.7,-6.1
CS(=O)(=O)Nc1ccccc1N=C(c1ccccc1)c1ccccc1,.,.,.,28.0,1.2,4.5
C#CCOCCOCCOCCNc1nc(N2CCOCC2)nc(N2CCN(C(=O)Cn3cc(CC(C)O)nn3)CC2)n1 (configuration not stated),.,0.1,-6.8,-5.7,15.0,0.1
C=CC1=C2C=C(C3CC3)N(CC3CC3)C=C2C(=O)C(C)(OC(=O)c2ccco2)C1=O (configuration not stated),-10.2,1.5,1.9,-3.1,-8.6,.
CC(C(=O)Nc1ccc(S(=O)(=O)N2CCCC2)cc1)N1CCN(c2ccccc2O)CC1 (configuration not stated),.,-0.1,-12.5,-1.5,-1.8,.
COc1ccc(CC(=O)N2N=C(C)CC2(O)C(F)(F)F)cc1OC (configuration not stated),1.4,-0.7,9.7,-5.0,1.9,2.0
Cc1ccc(OCCC(=O)Nc2ccc(C)c(F)c2)cc1,.,2.4,-11.4,-5.2,21.9,-12.4
NC(=O)c1nsnc1-c1ccccc1O,0.5,-0.2,7.2,-13.3,-0.6,3.3

# Whole records from above.
# O=C1c2ccccc2-c2nnc(-c3ccc(O)cc3)cc21 is entered as CtBP-E1A inh = 5.6; TRPML1 agonist = 0.8; TRPML1 blocker = 15.2; D2 potentiator = -24.6; Six1-Eya2 blk = -9.7; TRPV1 PAM = 15.5
# CC(=O)Sc1nc(-c2ccccc2)[nH]c1S(=O)(=O)c1ccc(C)cc1 is entered as CtBP-E1A inh = -2.9; TRPML1 agonist = -0.4; TRPML1 blocker = 7.7; D2 potentiator = -3.2; Six1-Eya2 blk = -0.5; TRPV1 PAM = 3.7

# Continuation:
SMILES,CtBP-E1A inh,TRPML1 agonist,TRPML1 blocker,D2 potentiator,Six1-Eya2 blk,TRPV1 PAM
Cc1csc(SCC(=O)NCc2ccccc2Cl)n1,-17.8,-1.8,2.5,-4.4,-19.5,?
CC(OC(=O)c1cc(Br)ccc1O)C(=O)Nc1ccc(S(=O)(=O)N2CCCC2)cc1 (configuration not stated),?,-0.5,-1.4,-23.3,?,12.6
c1cncc(-c2nc(N3CCOCC3)c3c4c(sc3n2)CCC4)c1,-2.8,-0.6,-7.5,-11.3,-2.4,-10.4
COc1ccc(-c2ccc(C(=O)Nc3ccc(C(C)C)cc3)c3occc23)c(C)c1,-2.3,2.0,26.7,6.4,-3.7,.
COC(=O)c1ccc(C2C(C(=O)c3ccco3)=C(O)C(=O)N2c2cc(C)on2)cc1 (configuration not stated),6.3,-0.6,-9.3,-6.8,-2.4,12.6
COc1ccc(C(=O)c2ccc(Br)cc2)c2ccccc12,.,1.7,4.4,-4.9,11.4,-13.8
C=CCNC(=O)N1CCCC(C(=O)c2cccc(OC(C)C)c2)C1 (configuration not stated),4.1,-0.6,6.2,4.8,-5.4,-27.5
Cc1ccc(NS(=O)(=O)c2cccc(C(=O)N3CCN(C(=O)c4ccco4)CC3)c2)cc1,-20.2,2.2,-6.1,1.9,3.0,-0.5
COc1cccc(NC(=O)C(=S)NC2CCCCC2)c1,-0.4,-0.9,-13.2,-22.4,0.2,-4.1
CCOC(=O)Cc1cn2c(=O)cc(CSCC(=O)Nc3ccc(C)c(C)c3)nc2s1,0.0,-0.1,-13.6,-13.9,13.8,17.6
Cc1ccc(/C=N/N=C/c2ccc(C)cc2)cc1,5.3,0.3,-13.0,-2.6,5.6,-1.0
CC(=O)N(C)c1ccc(C=C2C=Cc3ccccc32)cc1,-0.6,1.3,39.0,25.4,-19.4,.
CC(C)N=C(NC#N)SCC(=O)NC(C)(C)C,2.5,-0.9,3.4,-13.7,0.1,3.4
CCOc1ccc(S(=O)(=O)Nc2ccccc2C(=O)NCC2CCCO2)cc1 (configuration not stated),3.5,0.5,27.7,-0.5,6.2,?
COc1cc(OC)cc(OC(=O)c2ccc3c(=O)n4c(nc3c2)CCC4)c1,-1.3,-0.2,-4.0,2.3,-17.9,-0.6
CS(=O)(=O)c1ncc(Cl)c(C(=O)Nc2ccc(N3CCOCC3)cc2)n1,7.8,-0.4,15.5,-25.6,-1.8,-5.2
O=C(Nc1ccc(Cl)c(Cl)c1)c1ccc(Cl)c(Cl)c1,.,0.5,19.8,-21.2,7.2,-13.8
O=C(O[C@@H]1OC2COC(=O)c3cc(O)c(O)c(O)c3-c3c(cc(O)c(O)c3O)C(=O)O[C@@H]([C@H]1O)[C@@H]2O)c1cc(O)c(O)c(O)c1,-14.7,-0.4,29.9,1.5,?,14.0
C/C(CC(=O)N1CCN(C=O)CC1)=N\NC(=O)c1ccc(Cl)cc1,1.3,0.0,-14.3,-8.7,-2.1,-5.7
O=C(Cc1ccc(Br)cc1)Nc1cccc(S(=O)(=O)N2CCCCC2)c1,2.1,-0.1,91.1,-11.8,-6.4,.
CC(NC(=O)COC(=O)c1ccccc1O)C1CC2CCC1C2 (configuration not stated),7.0,0.9,8.9,-7.9,-0.3,.
Cc1cc(NC(=O)c2ccc(F)cc2)no1,.,-0.3,0.3,-3.7,-2.9,4.3
COc1ccc(OCCCN2CCCCCC2)cc1,-9.0,-0.6,-0.5,-29.1,-5.2,8.7
COc1cc(/C=C2/SC(=O)N(Cc3ccccc3Cl)C2=O)ccc1OCc1ccncc1,-2.6,-0.3,10.0,-3.6,-3.9,?
CNC(=O)c1sccc1Oc1ccc(F)cc1[N+](=O)[O-],-0.2,-0.1,-4.5,4.0,-0.9,-0.1
C=CCC[C@@H](Cc1ccc(F)cc1)C(=O)OC[C@H](C)NC(=O)[C@H](CC=C)CC(=O)N(CCO)Cc1ccccc1,5.3,0.3,-8.7,5.3,-6.5,.
CCc1nc2ccc(C(=O)Nc3cccc(OCC(=O)N(C)C)c3)cn2c1N(C)Cc1ccc(N(C)C)cc1,-26.7,-1.2,.,20.6,-23.4,.
COc1ccccc1C1=CC(=O)C[C@H](c2ccc(F)cc2)C1,9.9,1.6,33.1,-4.3,5.7,-14.2
CC(C)CCN(C(=O)Cc1ccccc1F)c1c(N)n(Cc2ccccc2)c(=O)[nH]c1=O,0.0,1.9,18.6,-3.9,1.5,-1.2
O=C(Nc1ccc2c(c1)OCO2)c1ccccn1,-8.6,-0.3,-12.8,-5.0,-1.6,-7.6
Cc1ccc(SCC(=O)NNC(=O)CNC(=O)c2ccc(Br)cc2)cc1,-6.3,1.1,-9.3,-5.7,3.0,.
Cc1ccc(S(=O)(=O)NCCC(=O)Nc2ncccc2O)cc1C,2.7,-0.5,-15.6,-7.1,-3.8,19.8
CCOc1ccccc1NS(=O)(=O)c1cn(C)c(=O)n(C)c1=O,-3.2,.,.,-6.6,4.2,13.7
CCOc1c(Cl)cc(CNCc2ccncc2)cc1OC,10.9,-0.8,-5.5,-1.8,6.7,-8.3
COc1cccc(CN2CC(C(=O)NCCCc3ccncc3)CCC2=O)c1 (configuration not stated),9.0,0.9,-3.8,-15.3,-0.8,-11.9
Cn1cccc1C(=O)OCc1cc(Cl)cc2c1OCOC2,-8.2,2.0,43.4,-3.0,-16.6,4.8
FC(F)(F)c1cnc(Nc2ccc(N3CCOCC3)cc2)c(Cl)c1,-20.8,-0.4,-0.7,25.1,-29.5,-0.2
COc1ccc(C(O)c2ncc(-c3ccccc3Cl)[nH]2)cc1 (configuration not stated),-3.8,0.6,-18.3,-13.0,-2.4,.
Cc1ccccc1CS(=O)(=O)CCC(=O)NCc1ccc(F)cc1Cl,8.0,-0.4,15.1,-15.0,1.7,-10.2
C#CCOCCOCCOCCNc1nc(N2CCOCC2)nc(N2CCN(C(=O)[C@H](Cc3ccc(O)cc3)n3cc(CCO)nn3)CC2)n1,7.6,-0.8,-16.7,-17.3,-0.5,.
O=C1/C(=C/c2cccnc2)CCC/C1=C\c1cccnc1,-0.5,-0.3,23.7,-16.2,-6.9,1.2
CCN1C(=O)N[C@@H](c2cccc(C(F)(F)F)c2)[C@@H](C(=O)OC)[C@H]1C,0.6,0.1,24.5,-4.2,7.1,.
CC(C)N(Cc1nccn1C)C(=O)CC1C(=O)NCCN1Cc1ccc(F)c(F)c1 (configuration not stated),0.4,0.0,9.6,-22.3,0.1,-5.3
Cc1ccc(C2C(C#N)=C(N)Oc3n[nH]c(-c4ccccc4)c32)o1 (configuration not stated),-20.5,1.0,2.8,-10.7,-18.8,5.0
COc1ccccc1/C=C/C=N/NC(=O)CC1C(=O)NN=C1C (configuration not stated),-2.4,-0.3,27.6,-10.2,-13.4,-10.8
CN(C)CCCN=Cc1c(O)n(Cc2ccccc2)c(=O)c2ccccc12,-7.2,0.5,4.4,-33.4,-19.0,-3.3
